# HIV TAR-Tat: HIV-1 TAR-Tat binding disruption | HIV-1 TAR RNA, Tat peptide displacement FRET; active compounds read high | z-score (no concentration beside the values) | 0.6% of 100,000 active | AID 1259389;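 also: score is relative to mean and SD of negative controls; some compounds called inactive have numbers as strong as hits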
# CDC25B-CDK2 inh: human CDC25B-CDK2/CyclinA binding inhibition. P30305+P24941. HTRF CDC25B-CDK2/CyclinA binding, anti-His/anti-Flag; active compounds read high. z-score (no concentration beside the values). 0.72% of 94,000 active. AID 1259370;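 also: score is relative to mean and SD of negative controls; strong numbers were not always called active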
# * marks the source's active call; other numbers are inactive results; · = no result given.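 The calls were made as follows: active = z-score from 3 up in half or more of its runs; inactive = the rest.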
SMILES,HIV TAR-Tat,CDC25B-CDK2 inh
CCCCCSc1nc2n(n1)C(c1ccccc1OC)C1=C(CC(C)(C)CC1=O)N2 (centres undefined),0.22,-1.6
O=C(C1=C(O)C(=O)N(Cc2cccnc2)C1c1cccnc1)c1ccco1 (centres undefined),-3.02,-0.2
Cn1c(=O)n(CCc2ccccc2)c(=O)c2c1nc1n2CCN1Cc1ccccc1,2.02,·
Cc1ccc(NS(=O)(=O)c2cn(C)c(C)n2)c(C)c1,1.77,·
Cc1sc2c(c1C)CSC(C(=O)NCCCN1CCc3ccccc3C1)=C2,-1.95,·
CCOC(=O)C1(c2ccccc2)CCN(S(=O)(=O)c2ccc(C(C)=O)cc2)CC1,·,-2.84
CC(=O)N/N=C(/C)c1cccc(NC(=O)c2ccc(Cl)cc2Cl)c1,·,-2.02
CCSc1nn(CC(=O)Nc2cccc(SC)c2)c(N)c1S(=O)(=O)c1ccccc1,-0.85,·
O=C1Cc2cc(S(=O)(=O)Nc3ccccc3F)cc3c2N1CCC3,-0.05,·
CN(C)c1ccc(-n2nnnc2SCC(=O)c2ccc3c(c2)OCO3)cc1,·,-0.34
CC(C)Cn1cc(NC(=O)Nc2cccc(Cl)c2)c2ccccc2c1=O,1.75,·
Fc1ccc(-c2n[nH]c3c2cnc2ccc(F)cc23)cc1,1.51,0.51
c1ccc(-c2nnn3c2nc(NCC2CCCO2)c2ccccc23)cc1 (centres undefined),0.55,-3.13
Cc1nc(-n2[nH]c(C)c(CCC(=O)N3CCN(c4ccc(F)cc4)CC3)c2=O)sc1C,-1.09,-1.32
Cn1c(C(=O)NCCCN2CCCC2)c(N2CCCC2=O)c2cc(F)ccc21,-1.39,·
CC(C)C(C(=O)O)N1C(=O)NC2NC(=O)NC21 (centres undefined),2.46,-0.59
Cc1nc2nc[nH]n2c(=O)c1NC(=O)Nc1ccccc1Br,0.93,-0.94
Cn1c(=O)c(=O)n(C)c2cc(N3CCCCC3)c(NS(=O)(=O)c3ccc(Cl)cc3)cc21,2.17,-1.75
Cc1cc(-c2ccc(C(C)C)c(S(=O)(=O)Nc3ccc4c(c3)OCCO4)c2)on1,0.94,·
CCc1nnc(-c2cn(CC(=O)OC)c3ccccc23)o1,-0.98,-1.74
COc1ccc(C2/C(=C(\O)c3ccc(Cl)cc3)C(=O)C(=O)N2Cc2cccnc2)cc1OC (centres undefined),8.28,-1.95
O=C(Nc1cc(C(F)(F)F)ccc1N1CCCC1)c1ccc2occc2c1,·,-1.96
O=C1C(c2ccc(F)cc2)N(C2CCCC2)C(=O)CN1C1CCCCCC1 (centres undefined),·,-0.6
CN(C)CCCNCCCNC(=O)c1cccnc1,·,0.77
O=C1c2ccccc2-c2onc3c(N4CCN(c5ccccc5F)CC4)cc(NCCO)c1c23,2.33,0.96
COc1ccc(/C(O)=C2\C(=O)C(=O)N(CCN3CCOCC3)C2c2ccc(OC)cc2)cc1 (centres undefined),0.87,-1.47
COc1ccc(NCc2nc3ccccc3n2CCOc2ccccc2)cc1,-0.54,1.04
C=CCOC(=O)c1sc(N2C(=O)c3oc4ccccc4c(=O)c3C2c2ccc(OC)cc2)nc1C (centres undefined),0.65,-1.31
Cc1nc(-c2csc(S(=O)(=O)Nc3ccc(Cl)cc3)c2)no1,1.45,·
Cc1cccc(-c2c3c(=O)n(C)c(=O)n(C)c3c3c(-c4ccccc4)cc(C)nn23)c1,1.25,-0.5
Cc1c(OC(=O)c2cccs2)ccc2c3c(c(=O)oc12)CCC3,·,1.32
S=c1nccc(-c2csc(COc3ccccc3Cl)n2)[nH]1,·,-1.53
CCOc1ccc(C2SC(NC(C)=O)=NN2C(C)=O)c(OCC)c1 (centres undefined),1.97,-1.14
CCOC(=O)Cc1csc(NC(=O)CC(C)(C)CC(=O)O)n1,·,-0.28
CCn1c(C(=O)N2CCC(C(=O)NC(=O)C3CCNCC3)CC2)cc2sccc21,-0.52,-0.49
CSc1nc(C)cc(C)c1C#N,·,0.61
N#Cc1cc(-c2nc3ccccc3[nH]2)c(N)n2c1nc1ccccc12,-8.25,-0.59
O=c1c2sc3ccccc3c2[nH]c(=S)n1CCO,·,-2.64
O=c1ccc(-c2ccc(S(=O)(=O)NCCN(Cc3ccco3)C3CCCC3)s2)n[nH]1,-0.31,·
Cn1c(=O)c([N+](=O)[O-])c(O)c2ccccc21,-0.97,-1.14
COc1ccc(C2C(C#N)=C(N)Oc3c2sc2ccccc32)cc1OC (centres undefined),-5.48,-101
O=C(Nc1ccc(Cl)cn1)C1CCCN(c2ncnc3c2nc2n3CCCCC2)C1 (centres undefined),0.83,·
O=C(c1ccc(F)cc1)N1c2ncnn2C2(CCCCC2)[C@@H]2CCCC[C@@H]21,1.75,-0.59
CCN(CC)C(=S)Oc1ccc([N+](=O)[O-])cc1,·,-1.1
COc1ccc2cc(NC(=O)NCCc3ccncc3)n(C)c2c1,0.71,-0.77
COc1ccc(-c2onc(C)c2C)cc1S(=O)(=O)NCCN1CCCC1,-0.53,·
O=C(NCCCN1CCOCC1)c1csc2c1CCCCC2,0.28,-0.54
O=C(O)c1ccc(OCC(O)Cn2cnc3ccccc32)cc1 (centres undefined),0.56,2.84
CCN(C(=O)CC(C)S(=O)(=O)c1ccc2c(c1)CCN2C(C)=O)c1ccccc1 (centres undefined),0.62,·
Cn1cc(C(=O)NC2CCCCC2)c(=O)c2cc(S(=O)(=O)N3CCCCCC3)ccc21,·,0.55
O=C(Nc1nnc2n1CCS2)c1ccc(S(=O)(=O)N2CCCCC2)cc1,-0.01,·
Cn1c(=O)c2c(nc(CN3CCN(CCO)CC3)n2CCCO)n(C)c1=O,1.03,-0.31
c1ccc(Cc2nn3cnnc3s2)cc1,0.76,-0.24
Cn1ncc2c(=O)n(Cc3c(F)cccc3Cl)cnc21,0.85,-0.63
O=C(NCC1CCCO1)Nc1ccccc1 (centres undefined),-1.72,0.23
Cc1ccc2oc(=O)c3cc(C(=O)N4CCN(c5ncccn5)CC4)sc3c2c1,·,-2.49
O=C(Nc1ccccc1N1CCOCC1)Nc1csc2ccccc12,·,-4
CCCn1c(N2CCC(C(N)=O)CC2)nc2c1c(=O)n(C)c(=O)n2C,·,0.05
CCCc1cc(=O)oc2c(C)c(OCC(=O)OC(C)C)ccc12,·,-0.35
CSc1nc2n(n1)C(C(C)C)C(C(=O)Nc1ccccc1)=C(C)N2 (centres undefined),0.32,-1.08

# Going on with the list.
SMILES,HIV TAR-Tat,CDC25B-CDK2 inh
COc1cc(CSc2nc3c(cnn3-c3ccc(Cl)cc3)c(=O)[nH]2)cc(OC)c1,0.88,·
N#Cc1nc(/C=C/c2ccccc2Cl)oc1N1CCN(C(=O)c2ccc(F)cc2)CC1,0.02,-0.49
Cc1cccc(NC(=O)C(C)N2Cc3ccccc3C2=O)n1 (centres undefined),-1.07,·
COc1cc(/C=c2\sc3nc4ccccc4n3c2=O)ccc1OCc1ccc(I)cc1,·,-2.37
O=C(NCc1ccccn1)c1cc2c(Cl)ccc3c2n1CCO3,2.09,·
CCOC(=O)Cn1c(=O)c2c3c(sc2n(CC(=O)c2ccccc2)c1=O)COC(C)(C)C3,1.81,-0.4
O=C(O)c1cc(N(Cc2ccccc2O)Cc2cc(O)ccc2O)ccc1O,34.4*,·
COC(=O)C1=C(C)Nc2nnnn2C1c1ccc(OCc2ccccc2)c(OC)c1 (centres undefined),-0.31,-1.47
O=S1(=O)C[C@H](NC2CCCC2)[C@@H](S(=O)(=O)c2ccc(F)cc2)C1,1.39,-2.28
CCN(CC)CC(O)Cn1c2c(c3cc(C)ccc31)CCCC2=O (centres undefined),·,-2.37
CCOC(=O)CCC(=O)Nc1nnc2n1CCS2,-0.19,·
O=C(O)CCC(=O)Nc1nc(-c2cc3ccccc3oc2=O)cs1,·,-2.01
COC(=O)C(CCSC)NC(=O)C1c2ccccc2C(=O)N(C)C1c1cccs1 (centres undefined),1.55,·
CCOC(=O)Cc1cnc(NN=C2C3CC4CC(C3)CC2C4)s1,·,-2
CC1Cn2cc(C(=O)Nc3ccc(F)cc3F)c(=O)c3c(Cl)ccc(c32)O1 (centres undefined),0.94,·
O=C(Nc1ccccc1F)C1Sc2nnc(-c3ccccc3)n2NC1c1ccccc1 (centres undefined),-0.4,-0.23
CC(C)(C)c1nnc2sc(SCC(=O)c3cccs3)nn2c1=O,0.7,·
Cc1c(Cl)cccc1NS(=O)(=O)c1cccc2cccnc12,0.56,-1.45
CSC1=NNC(c2nn(C)cc2Cl)S1 (centres undefined),·,-0.68
Cc1ccc(NC(=O)CCC(=O)OCC(=O)c2ccc(Cl)c([N+](=O)[O-])c2)cc1C,·,1.83
FC(F)(F)c1cc(-c2cccs2)nc2cc(-c3cccs3)nn12,·,-2.86
CCOc1cc(C(=O)Nc2ccc(O)c(-c3nc4ccccc4s3)c2)cc(OCC)c1OCC,·,-2.86
CCOC(=O)CSc1ncnc2c1c(-c1ccccc1)cn2-c1ccc(F)cc1,·,-0.13
CC1(C)Cc2nc3oc4c(SCC(N)=O)ncnc4c3cc2CO1,-1.3,·
COc1ccc(N(CC(=O)Nc2cc(C)[nH]n2)C2=NC3CS(=O)(=O)CC3S2)cc1 (centres undefined),-0.19,-1.44
O=S(=O)(Oc1cccc2[nH]ccc12)c1ccc(F)cc1F,·,0.76
CCOc1ccc(NC2=NC(c3cc(OC)ccc3OC)n3c(nc(C)cc3=O)N2)cc1 (centres undefined),0.83,-1.1
N/C(COc1ccc(Cl)cc1)=N/OC(=O)c1ccsc1,·,-1.97
CC(=O)NC1=NN(C(C)=O)C(c2cccs2)S1 (centres undefined),-1.28,-1.61
O=c1oc(-c2sc3ccccc3c2Cl)nc2ccccc12,-0.75,-0.01

# Looked up above:
# Cc1c(Cl)cccc1NS(=O)(=O)c1cccc2cccnc12 in CDC25B-CDK2 inh is listed with -1.45
# CCOC(=O)Cn1c(=O)c2c3c(sc2n(CC(=O)c2ccccc2)c1=O)COC(C)(C)C3 in CDC25B-CDK2 inh is listed with -0.4

# Next entries follow:
SMILES,HIV TAR-Tat,CDC25B-CDK2 inh
O=C(NC(=O)c1ccccc1N1CCCCC1)Nc1ccc(Cl)c(Cl)c1,·,-1.29
Cc1ccc(-c2cn3ccccc3n2)cc1C,2.71,-0.02
CCc1nn2c(=O)cc(COC(=O)COc3ccccc3F)nc2s1,-0.59,·
O=C(NCCn1ccc2ccccc21)C(=O)c1cn(CC(=O)N2CCOCC2)c2ccccc12,0.22,·
CCCCc1nc2c3c(C)c(C)n(-c4cccc(OC)c4)c3ncn2n1,1.26,1.07
Cc1nc(-n2[nH]c(C)c(CCC(C)C)c2=O)sc1C(=O)Nc1ccccc1,0.62,-0.51
Cc1nn(C)c(C)c1CNC(=O)CC1(CC2=NS(=O)(=O)c3ccccc3N2)CCCC1,1.6,·
Cc1csc2ncc(C(=O)NCc3ccc(Cl)cc3)c(=O)n12,·,-1.73
O=C(Nc1ccc(F)c(F)c1)c1c(O)c2c([nH]c1=O)CCCC2,0.46,·
CCOC(=O)C(CC)Sc1nnc(CSc2ncccn2)n1-c1ccccc1 (centres undefined),-0.2,-1.5
Cc1ccc(S(=O)(=O)NC2=NCN(CCc3ccccc3)CN2)cc1,-0.19,-1.2
CCCCN(c1ccccc1)c1ncnc2c1cnn2C,0.22,·
CC1CCN(C(=O)C2CCCN(c3nnc(-n4cccc4)s3)C2)CC1 (centres undefined),0.63,-1.52
COc1cccc(CNCCSc2nnnn2C)c1OCc1ccc(F)cc1,1.6,1.39
Nc1cccc(S(=O)(=O)NC2CCCC2)c1,2.87,-2.38
O=C(NC1CCCC1)N1CCC2(CC1)Nc1cc(F)ccc1-n1cccc12,0.19,·
CCOC(=O)C1CCCN(S(=O)(=O)c2cc(-c3ccc(=O)[nH]n3)cc(C)c2C)C1 (centres undefined),1.8,·
COc1ccc(-c2cnn3c(N)c(-c4ccc(Cl)cc4)cnc23)cc1OC,2.11,-0.38
Cc1c(C)[n+](=O)c2c(n1[O-])CCCCC2,·,0.8
C(=C\c1ccccc1)/CSc1nnc(C2CCNCC2)o1,-0.76,-2.33
COC(=O)C1=NN(c2ccccc2OC)C2C(=O)N(c3ccccc3OC)C(=O)C12 (centres undefined),-0.61,-1.33
CCCN1CNC(=S)N(c2ccc(CC)cc2)C1,·,-1.44
O=C(O)CCc1cn(Cc2ccc(F)cc2)c2ccccc12,0.16,-0.24
O=C(CC(C(=O)O)C1CCCO1)NCCc1ccc2c(c1)OCO2 (centres undefined),1,·
c1ccc(-c2cc(NCc3ccco3)n3cnnc3n2)cc1,-0.77,-0.07
N#C/C(=C\Nc1ccc(Cl)cn1)C(=O)c1cccc(CSc2ccccc2)c1,·,-2.35
S=c1[nH]c(-c2ccccc2)cn1-c1ccccc1,·,-2.1

# Grouped by structure, the entries above with an aryl thioether with sulfur outside any ring.
SMILES,HIV TAR-Tat,CDC25B-CDK2 inh
CCCCCSc1nc2n(n1)C(c1ccccc1OC)C1=C(CC(C)(C)CC1=O)N2 (centres undefined),0.22,-1.6
CCSc1nn(CC(=O)Nc2cccc(SC)c2)c(N)c1S(=O)(=O)c1ccccc1,-0.85,·
CN(C)c1ccc(-n2nnnc2SCC(=O)c2ccc3c(c2)OCO3)cc1,·,-0.34
CSc1nc(C)cc(C)c1C#N,·,0.61
CSc1nc2n(n1)C(C(C)C)C(C(=O)Nc1ccccc1)=C(C)N2 (centres undefined),0.32,-1.08
COc1cc(CSc2nc3c(cnn3-c3ccc(Cl)cc3)c(=O)[nH]2)cc(OC)c1,0.88,·
CC(C)(C)c1nnc2sc(SCC(=O)c3cccs3)nn2c1=O,0.7,·
CCOC(=O)CSc1ncnc2c1c(-c1ccccc1)cn2-c1ccc(F)cc1,·,-0.13
CC1(C)Cc2nc3oc4c(SCC(N)=O)ncnc4c3cc2CO1,-1.3,·
CCOC(=O)C(CC)Sc1nnc(CSc2ncccn2)n1-c1ccccc1 (centres undefined),-0.2,-1.5
COc1cccc(CNCCSc2nnnn2C)c1OCc1ccc(F)cc1,1.6,1.39
C(=C\c1ccccc1)/CSc1nnc(C2CCNCC2)o1,-0.76,-2.33
N#C/C(=C\Nc1ccc(Cl)cn1)C(=O)c1cccc(CSc2ccccc2)c1,·,-2.35

# Assay outcomes deposited in PubChem BioAssay by Center for Chemical Genomics, University of Michigan.
